# Tgondii IFNg: T. gondii growth inhibition under IFN-gamma | Toxoplasma gondii growth in IFN-gamma-treated host cells; stronger effect = lower value; reference of the scale not given here | activity change, negative = inhibition, %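 (about 20 µM by stock and volumes)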 | actives 3.8% (n = 69,000) | AID 1259416;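 active = below -70%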;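 also: host cells are HeLa cells infected with Toxoplasma gondii; parasite growth read as luciferase light; one replicate is shown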
# Numbers without * were called inactive; i = inactive; & = joins results of further samples.
SMILES,Tgondii IFNg
CCc1[nH]c(=O)c(C(=O)Nc2ccc(C)c(S(=O)(=O)N3CCOCC3)c2)cc1C,-30.5
CC1(C)CNC(=O)c2nc(-c3ncc[nH]3)[nH]c2C1,26.8
O=C(NCCc1ccncc1)[C@@H]1[C@@H](CO)[C@@H]2Cn3c(cccc3=O)[C@H]1N2Cc1ccccc1F,3.2
Cc1cc2ncc(-c3ccn(S(=O)(=O)c4ccc(Cl)cc4)c3)nc2cc1C,27.2
CCOc1ccc(-c2nc(CNS(=O)(=O)c3ccccc3)c(C)o2)cc1,147.6
Cc1cccc(C[C@H]2CN(C(=O)c3ccoc3)CC[C@@H]2OCC2CC2)c1,-16.4
CCN(CCc1nc2ccc(C)cc2[nH]1)C(=O)COC,-33.8
CN(C)C1CCN(C(=O)c2ccsc2)C(C(=O)O)C1 (stereo unspecified),-33.2
Cc1[nH]cnc1-c1c(-c2ccccc2)ncn1C,-14.0
O=C1COC2(CCN(C(=O)c3ccncc3)CC2)CN1Cc1ccccn1,-0.5
O=C(CN1CCOC1=O)N1CCOC(c2ccc(Cl)c(Cl)c2)C1 (stereo unspecified),-4.0
COCCC1CN(c2nc(CCN)nc3ccccc23)CCO1 (stereo unspecified),-42.7
NC(=O)N1CCO[C@]2(CCC[C@H]2COc2cccnc2)C1,4.7
CCc1ccccc1NC(=O)N1CCC2(CC1)NC(=O)c1ccccc1N2CC,-31.6
CSc1nccc(-c2ccc(S(=O)(=O)Nc3cccc(C(F)(F)F)c3)s2)n1,-53.5
Cc1nc(C)n(CCC(=O)NC(C)c2cccs2)n1 (stereo unspecified),6.5
O=C(NC1CCCC1)N1CCCCN2[C@H](C1)[C@@H](c1ccc(-c3cccnc3)cc1)[C@@H]2CO,-11.6
CCOCC1COCCC12CCN(C(=O)CCc1ccccc1C)CC2 (stereo unspecified),-67.7
COc1ccc(NS(=O)(=O)c2ccc(N=Nc3ccc(O)c(C(=O)O)c3)cc2)nn1,12.7
O=S(=O)(Nc1ccc(F)c(Cl)c1)c1ccccc1Oc1ccc(Cl)cc1Cl,51.3
CC(C)N1CCOCC2(CN(Cc3cnn(C)c3)CCO2)C1 (stereo unspecified),0.9
COc1ccc(-c2nc(CN(c3ccccc3C)S(=O)(=O)c3cccs3)c(C)o2)cc1,-56.2
Cc1cccc(CN2CCC3C2CCC(=O)N3CC2CCOCC2)c1 (stereo unspecified),7.7
Cn1cc(CN2CCC3(CC(=O)N(c4cccc(F)c4)C3)C2)cn1 (stereo unspecified),-5.1
C=C1CC[C@H](O)C/C1=C/C=C1\CCC[C@]2(C)[C@@H]([C@H](C)CC[C@@H](O)C(C)(C)O)CC[C@@H]12,7.5
Nc1cccnc1Sc1nc2cccnc2s1,98.5
CCc1nc(SCC(=O)NCc2ccc3c(c2)OCO3)n[nH]1,-43.6
CCCNC(=O)N1[C@@H](C#N)[C@H](c2ccc(C#Cc3cccc(F)c3)cc2)[C@@H]1CO,-64.7
CC(C)NC(=O)N1CCOCC2(C1)CN(c1ccsc1)C(=O)CO2 (stereo unspecified),-19.8
CC(C)c1cc(C2CCN(C(=O)c3ccc(Cn4cnnn4)cc3)CC2)[nH]n1,-2.8
COc1ccc2c3c([nH]c2c1)[C@@H](CO)N(C(=O)C1CCOCC1)CC31CN(C(=O)NC(C)C)C1,-5.9
CC1=C(C(=O)NCCCN(C)C2CCCCC2)C2(CCN(Cc3ccccc3)CC2)OC1=O,-55.8
COc1cccc(CCC(=O)N2CCOC3CCC2C3OC)c1 (stereo unspecified),-39.9
CCN1CCNC(=O)C1CC(=O)N1CCC(c2nn(C)c(=O)n2CC)CC1 (stereo unspecified),3.4
COC(=O)c1ccccc1C(=O)N1CCCC(CCC(=O)NCc2ccc(F)c(F)c2)C1 (stereo unspecified),-2.2
COc1cc(S(=O)(=O)NCCc2ccccc2)ccc1-n1cnnn1,-23.0
C/C=C/c1ccc([C@@H]2[C@H](CO)N[C@H]2CN(C(=O)c2ccccc2F)C(C)C)cc1,29.8
Cc1ccc2c(c1)cc(S(=O)(=O)c1ccccc1)c(=O)n2CC(=O)NC1CCCCC1,15.6
O=c1c2cc(NS(=O)(=O)c3ccc(Cl)cc3)ccc2oc2ncccc12,30.0
CC(C)Nc1ncnc2c1CCN(C(=O)CCc1ccccc1)CC2,-4.3

# Part of the list above in another layout:
mol	Tgondii IFNg
CCOCC1COCCC12CCN(C(=O)CCc1ccccc1C)CC2 (stereo unspecified)	-67.7
COc1ccc(NS(=O)(=O)c2ccc(N=Nc3ccc(O)c(C(=O)O)c3)cc2)nn1	12.7
O=S(=O)(Nc1ccc(F)c(Cl)c1)c1ccccc1Oc1ccc(Cl)cc1Cl	51.3
CC(C)N1CCOCC2(CN(Cc3cnn(C)c3)CCO2)C1 (stereo unspecified)	0.9
COc1ccc(-c2nc(CN(c3ccccc3C)S(=O)(=O)c3cccs3)c(C)o2)cc1	-56.2
Cc1cccc(CN2CCC3C2CCC(=O)N3CC2CCOCC2)c1 (stereo unspecified)	7.7
Cn1cc(CN2CCC3(CC(=O)N(c4cccc(F)c4)C3)C2)cn1 (stereo unspecified)	-5.1
C=C1CC[C@H](O)C/C1=C/C=C1\CCC[C@]2(C)[C@@H]([C@H](C)CC[C@@H](O)C(C)(C)O)CC[C@@H]12	7.5
Nc1cccnc1Sc1nc2cccnc2s1	98.5
CCc1nc(SCC(=O)NCc2ccc3c(c2)OCO3)n[nH]1	-43.6
CCCNC(=O)N1[C@@H](C#N)[C@H](c2ccc(C#Cc3cccc(F)c3)cc2)[C@@H]1CO	-64.7
CC(C)NC(=O)N1CCOCC2(C1)CN(c1ccsc1)C(=O)CO2 (stereo unspecified)	-19.8
CC(C)c1cc(C2CCN(C(=O)c3ccc(Cn4cnnn4)cc3)CC2)[nH]n1	-2.8
COc1ccc2c3c([nH]c2c1)[C@@H](CO)N(C(=O)C1CCOCC1)CC31CN(C(=O)NC(C)C)C1	-5.9

# Continuation:
SMILES,Tgondii IFNg
O=C(c1ccncc1)N1CCCC2(CCCN2Cc2cccc(F)c2)C1 (stereo unspecified),-6.1
Cc1cnc(C)c(N2CCC3(CCCO3)CC2)n1,-11.6
CCOC(=O)c1cc(C)nc2c1c(=O)n(Cc1nc(-c3ccc(OCC)cc3)oc1C)c(=O)n2C,-0.1
COc1ccc(C(N)CC(=O)N2CCC(O)(c3ccc(C)cn3)CC2)cc1OC (stereo unspecified),4.6
Cc1ccccc1CN(CC1CCCO1)C(=O)CCN1CCCCO1 (stereo unspecified),7.7
COc1ccc(-c2nc(NCC3CCN(CCc4ccc(F)cc4)CC3)c3ccccc3n2)cc1,-40.3
Cc1oncc1C(=O)N1CC[C@@H](O)[C@@H]1Cc1ccccc1,-19.7
CO[C@@H]1CC[C@@H]2CCOc3ccc(C#N)cc3C(=O)N(C)C[C@@H](c3ccccc3)CC(=O)N(C)C[C@H]1O2,-26.3
O=C(O)Cc1ccc(C(=O)CSc2nccc(-c3cccs3)n2)s1,125.4
Cn1ncc2c(N3CCCC3)ncnc21,138.8
Cc1cc(CNC(=O)CN2C(=O)c3ccccc3C2=O)no1,19.0
Cc1ccc(S(=O)(=O)N2CCC3(CC2)NCCN=C3NCc2ccc(F)c(Cl)c2)cc1C,-19.1
Cc1nc2sccn2c(=O)c1CCN1CCC(=C(c2ccccc2)c2ccc(F)cc2)CC1,-45.0
N#C[C@H]1[C@H](c2ccc(C3=CCCC3)cc2)[C@@H](CO)N1C(=O)c1ccccn1,11.7
O=C(O)c1ccccc1-c1nccn1C1CCCC1,0.9
Cc1cccc(-c2nc(C)c(CCNC(=O)C(=O)Nc3ccc(F)cc3F)s2)c1,249.7
Cn1cc(CN2CCc3ncnc(-c4ccc(F)cc4)c3CC2)cn1,-19.4
COc1ccc(NC2CCCN(C(=O)Cc3c[nH]c4ccccc34)C2)cc1 (stereo unspecified),-1.5
Cc1[nH]cnc1-c1nccn1CCn1ccnc1,9.0
O=C(c1cccnc1)N1CCC2(CC1)C(=O)NCC2c1ccccc1 (stereo unspecified),-21.9
CS(=O)(=O)N1CCC2(CC1)CC(NC1CCOCC1)c1ccccc12 (stereo unspecified),61.4
C=CCn1c(=O)c(C(=O)Nc2cc(C)cc(C)c2)c(O)c2ccccc21,79.8
O=C(CN1CCN(c2nc3ccccc3s2)CC1)Nc1ccnn1C1CCCC1,-49.1
O=C(O)c1ccc(C2CCN(C(=O)c3cccc(-c4ncc[nH]4)c3)C2)cc1 (stereo unspecified),-1.0
COc1cc2c(cc1OC)CN(CCc1ccc(NC(=O)c3cc(OC)c(OC)cc3NC(=O)c3cnc4ccccc4c3)cc1)CC2,-26.4
CCn1c(C2CCN(C(=O)CC3=CCNCC3)CC2)n[nH]c1=O,2.4
c1ccc(CN2CCOC3(CCN(Cc4ccncc4)CC3)C2)nc1,7.8
Cc1nnc(N2C[C@H]3CCCO[C@H]3[C@H](N3CCCC3)C2)s1,5.7
COc1cc(CNC(=O)C2(C)CCN(C(=O)c3ccccc3F)CC2)cc(OC)c1,16.9
CCN1CCC2(CC1)CN(Cc1csc(C)n1)C(=O)CO2,6.2
CNC(=O)[C@@H]1C[C@@H](N)CN1C(=O)c1ccc2scnc2c1,2.8
CCS(=O)(=O)N1CC2(CN(C)[C@@H](CO)c3c2c2ccc(OC)cc2n3C)C1,-54.7
COc1ccc(-c2nc(C)c(CCNC(=O)C(=O)Nc3ccc(F)cc3)s2)cc1,-58.6
CCc1c(C)sc2c1CCN(Cc1nc(-c3ccc(C(C)C)cc3)oc1C)C2c1ccccc1 (stereo unspecified),-19.6
O=C(NCCO)c1cc2n(n1)CCN(Cc1ccc3ccccc3n1)C2,-4.8
Cc1csc2nc(=O)c(-c3ccccc3NC(=O)C(C)c3ccccc3)nn12 (stereo unspecified),-10.8
Cc1cccc(NC(=O)COc2nc(C)nc3ccccc23)c1,-7.7
O=C(CCCn1c(=S)[nH]c2cc3c(cc2c1=O)OCO3)N1CCC(O)(c2cccc(C(F)(F)F)c2)CC1,-57.2
COc1cccc(C(=O)NCCc2csc(-c3cccc(F)c3)n2)c1OC,32.1
COCC(=O)N1[C@H](C#N)[C@H](c2ccc(C#CCC3CCCC3)cc2)[C@@H]1CO,-65.9
Cc1c(-c2ccnn2C(=O)c2cccs2)cnn1-c1ccccc1,22.8
COc1ccccc1-c1nc(CN(c2ccccc2OC)S(=O)(=O)c2ccccc2C)c(C)o1,-55.4
CC(C)N(C)Cc1cnc2n1CCN(CC1CCOC1)CC2 (stereo unspecified),-2.6
O=C(Cn1c(=O)cc(C(=O)N2CCCCC2)c2ccccc21)Nc1ccc2c(c1)OCO2,-54.3
CN1C(=O)c2cc(NC(=O)c3ccccc3Cl)ccc2OC[C@H]2O[C@@H](CC(=O)Nc3ccc4c(c3)CCC4)CC[C@@H]21,-27.0
COc1ccccc1C1NC(C(=O)O)Cc2c1[nH]c1ccccc21 (stereo unspecified),20.2
COC(=O)c1cc(-c2ccc(C)o2)nc2ccccc12,13.0
COCCN1C(=O)[C@]2(CC[C@@H]3CN(C(=O)NC4CCCC4)C[C@H]32)N=C1C,8.4
COc1ccc(-n2c(-c3ccccc3)cnc2SCC(=O)Nc2cc(C)cc(C)c2)cc1,-98.3*
CCCSc1ncccc1C(=O)Nc1cccc2nonc12,-14.2
Cc1cc(C2CCCN2C(=O)Cn2nc(C(F)(F)F)cc2C)no1 (stereo unspecified),2.5
CC(CCc1ccco1)NS(=O)(=O)NCc1ccccc1 (stereo unspecified),-1.5
C[C@@H]1CN([C@H](C)CO)C(=O)c2cc(N(C)C)ccc2O[C@@H](C)CCCCO[C@@H]1CN(C)S(=O)(=O)c1ccc(F)cc1,463.6
Clc1cncc(Cl)c1CN1CCCCC1c1ccccn1 (stereo unspecified),-23.8
Cc1ccnc(N2CC[C@@](C)(O)[C@@H](Cc3ccccc3)C2)n1,6.0
O=C(c1cccc(Cn2cccn2)c1)N1CCOC(c2ccc(F)cc2)C1 (stereo unspecified),4.4
CC(C)c1cc(C2CCN(Cc3ccc(-c4ccn[nH]4)o3)CC2)[nH]n1,6.3
NC(=O)c1cccnc1N1CCN(Cc2cc3n(n2)CCCNC3)CC1,7.1
COc1ccc(-c2noc(-c3c(O)c4ccccc4[nH]c3=O)n2)cc1OC,25.5
COc1ccc2c(c1)SC1=NC(c3ccc(C)cc3)(C(F)(F)F)NC(=O)N12 (stereo unspecified),-29.3
# More entries.
SMILES,Tgondii IFNg
CCn1c(N)nc2c1c(=O)[nH]c(=O)n2C,6.8
CO[C@H]1CN(C)C(=O)c2ccc(NS(=O)(=O)CC(F)(F)F)cc2OC[C@H](C)N(Cc2nccs2)C[C@H]1C,64.4
Cc1ccc2c(c1)C(CC(=O)N1CCc3c(nc(C)nc3N(C)C)C1)C(=O)N2 (stereo unspecified),4.2
CCN(CC)C(=O)C1Cn2ccnc2C2(CCN(C(=O)NC3CCCC3)CC2)O1 (stereo unspecified),-1.0
CN1CCCn2nc(C(=O)N3CCN(Cc4ccc(F)cc4)C(=O)C3)cc2C1,-6.3
CC12CCC(=O)C=C1CCC1C2[C@@H](O)CC2(C)C1CC[C@]2(O)C(=O)COP(=O)(O)O (stereo partly specified),5.7&-20.1
CC(=O)NCC1CCCN(Cc2ccc(C)c(F)c2C)C1 (stereo unspecified),-3.8
COc1ccc(CC(=O)c2c(O)cc(O)cc2O)cc1OC,9.6
O=C(c1ccc2c(c1)OCO2)N1CCc2c([nH]c3ccccc23)C1c1ccc(Cl)cc1 (stereo unspecified),-83.2*
O=C(Cn1ncc2c(N3CCCCC3)ncnc21)N1CCN(c2ccccc2F)CC1,-22.1
COc1ccc(C(=O)NCCc2sc(-c3ccc(OC)c(OC)c3)nc2C)cc1,i
CCS(=O)(=O)Nc1ccc2c(c1)C(=O)N(C)[C@@H]1CC[C@H](CC(=O)N[C@@H]3CCN(Cc4ccccc4)C3)O[C@@H]1CO2,1.9
COc1ccc(CN2CC3CC(c4cccs4)N4CCCC34C2)cc1 (stereo unspecified),-14.1
Cc1nc(C2(O)CCCNCC2)sc1CCOc1ccc(F)c(F)c1 (stereo unspecified),-20.8

# Assay outcomes deposited in PubChem BioAssay by Broad Institute.

# This is a subset; rates above refer to the full screens.
